# Tg IFNy HTS: inhibitors of Toxoplasma gondii growth with IFN-gamma; activity change, negative = inhibition, %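 (about 20 µM by stock and volumes)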; hit rate 3.8% among 69,000; Toxoplasma gondii growth in IFN-gamma-treated host cells; hits give low values; reference of the scale not given here;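 active = below -70%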;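 note: host cells are HeLa cells infected with Toxoplasma gondii; parasite growth read as luciferase light; one replicate is shown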
# * = called active by the depositor; & = joins results of further samples. Only part of the results is shown; count on the stated rates, not on these rows.
mol | Tg IFNy HTS
CC(=O)N1CCC(C(=O)NCc2ccccc2)(N(C(=O)c2ccc(C)cc2)c2ccc(C)c(Cl)c2)CC1 | -32
COC(=O)c1c(NC(C)c2ccccc2)c2cccc(Cl)c2[nH]c1=O (stereo unspecified) | -19
COc1ccc2nc(CNC3CCN(CC(C)C)CC3)[nH]c2c1 | -7
CN(C)C(=O)C[C@H]1C[C@@H]2CN(Cc3ccc4c(c3)OCO4)C[C@H]2O1 | 76
C[C@H](CO)N1C[C@H](C)[C@@H](CN(C)C(=O)Nc2ccnc(N3CCOCC3)c2)OCc2cnnn2CCCC1=O | 117
COc1cccc(S(=O)(=O)N2CCCCN3[C@H](CO)[C@H](c4ccc(C#CCC(C)C)cc4)[C@H]3C2)c1 | -81*
CCc1cc2c(c(CC)n1)CCC(=O)N2Cc1ccc(-c2ccccc2-c2nn[nH]n2)cc1 | 18
O=C1CSC(c2cn(-c3ccccc3)nc2-c2ccccc2)N1Cc1cccnc1 (stereo unspecified) | -17
O=S(=O)(c1cccs1)N1CCC2(CC1)Nc1cc(F)ccc1-n1cccc12 | 18
O=C(c1cccc(F)c1)N1C[C@H]2CCCN(S(=O)(=O)C3CCS(=O)(=O)C3)[C@H]2C1 (stereo partly specified) | 61
O=C(O)CCCN(c1ccccc1C(=O)O)S(=O)(=O)/C=C/c1ccccc1 | 2
OCC1(CC2CCCCO2)CCN(c2nnnn2-c2ccccc2)CC1 (stereo unspecified) | 1

# (further entries)
mol | Tg IFNy HTS
Cc1ccsc1-c1cn(CC2(C)CCCO2)nn1 (stereo unspecified) | 0
CC(=O)Nc1ccc(S(=O)(=O)Nc2nc3ccccc3nc2Nc2ccc(C)cc2)cc1 | -30
O=C(c1cn(CC2CCCNC2)nn1)N1CC=CC1 (stereo unspecified) | 5
CN(Cc1cnc(C(C)(C)C)nc1)Cc1nc2ccc(F)cc2[nH]1 | -1
Cc1c(C(F)(F)F)nc(-c2ccc(CN3CCCC(CN)C3)cc2)[nH]c1=O (stereo unspecified) | -13
CCOCC1CCC2C1OCCN2C(=O)C1CCCO1 (stereo unspecified) | -6
CCc1nc(N2[C@@H](C#N)[C@H](c3ccccc3-c3ccc(F)cc3)[C@@H]2CO)sc1C | 9
O=C(NCC1CCNCC1)c1ccc(C2CCNC2)cc1 (stereo unspecified) | -3
C=CCN1CCO[C@H]2CN(C(=O)Cc3ccsc3)CC[C@@H]2C1 | 8
COc1cc2c(cc1OC)C(c1ccc(OC(C)C)cc1)CC(=O)N2 (stereo unspecified) | 84
O=C(NCc1ccc2c(c1)OCO2)c1ccc2c(c1)OCCO2 | 36
CCc1nc(CN(C)C(=O)c2ccc(-c3ccccc3Cl)o2)no1 | 66

# Structures from the list above that contain an aryl methoxy group:
mol | Tg IFNy HTS
COc1ccc2nc(CNC3CCN(CC(C)C)CC3)[nH]c2c1 | -7
COc1cccc(S(=O)(=O)N2CCCCN3[C@H](CO)[C@H](c4ccc(C#CCC(C)C)cc4)[C@H]3C2)c1 | -81*
COc1cc2c(cc1OC)C(c1ccc(OC(C)C)cc1)CC(=O)N2 (stereo unspecified) | 84

# More structures
mol | Tg IFNy HTS
O=c1cc(CN2CCN(c3cccc(Cl)c3)CC2)c2cc(O)c(-c3ccccc3)cc2o1 | 33
COc1cccc(-c2nccc(C3CCCN3C(=O)c3ccc4ncccc4c3)n2)c1 (stereo unspecified) | 28
CC(C)N1C2COCC1CN(C(=O)c1cccc(C#N)c1)C2 | 480
COc1cccc(-c2cn[nH]c2C2CCN(C(=O)c3ccc(C)[nH]c3=O)CC2)c1 | 6
CCN(CC)c1ncnc2c1cnn2CC(=O)NCc1ccccc1 | -96*
CCc1nn(C)c(NC(=O)Cc2nnn(C(C)C)n2)c1C | -3
Cc1cc(C)n(Cc2cc(C(=O)N3CCN(C)C[C@@H]3c3ccccc3)n[nH]2)n1 | -3
Cc1nc2c(c(NCc3cnc4c(c3)CCC4)n1)CNC2 | 134
Cc1nc(CCNC(=O)C2CCN(C(=O)c3ccccc3Cl)CC2)cs1 | 29
CN1C(=O)c2cc(NS(C)(=O)=O)ccc2OC[C@H]2O[C@H](CC(=O)NCc3ccccc3)CC[C@H]21 | 9
COc1cccc(CN(C)CC(=O)N2CCCC2c2ccc(Nc3ncccc3C)cn2)c1 (stereo unspecified) | 10
CC(=O)NCCn1cnc(-c2ccccc2)c1-c1nc2ccccc2n1C | 7

# Following part.
mol | Tg IFNy HTS
CCc1cnc(N2CCc3ncnc(C4CC4)c3CC2)nc1 | -7
Cc1ccccc1S(=O)(=O)N1CCC2(CC1)Nc1ccccc1-n1cccc12 | 5
CCc1cc(CNC(=O)CCS(=O)(=O)c2ccc(C)c(C)c2)on1 | 7
CC(C)CCC1(CCNC(C)c2cccs2)CCOC(C)(C)C1 (stereo unspecified) | 16
O=C(NCCS(=O)(=O)Cc1ccc(F)cc1)c1cccc(OC(F)(F)F)c1 | -60
Cc1ccc(-c2coc(-c3ccc(NC(=O)Nc4ccc(F)cc4)cc3)n2)cc1 | 29
Cc1cccc(S(=O)(=O)Nc2ccc3c(c2)CCC(=O)N3)c1 | 63
COCc1nc(N2CCN(c3ncccc3C)CC2)c2cnn(C)c2n1 | -6
CCC1C=CCC2C(=O)N(CC(=O)Nc3ccc(Cl)c(Cl)c3)C(=O)C12 (stereo unspecified) | -37
COc1ccccc1-c1nc(Cn2nnc(C(=O)Nc3cc(Cl)ccc3C)c2C)c(C)o1 | 12
CCN1CCc2noc(C3CCN(C(=O)Cn4nc(C)c5ccccc5c4=O)CC3)c2C1 | 8
COc1ccc(S(=O)(=O)n2nc(C)cc2C)cc1N(C)S(=O)(=O)c1ccccc1 | -10

# (listing goes on)
mol | Tg IFNy HTS
CC(Nc1nc(N2CCNCC2)nc2ccccc12)c1ccccc1 (stereo unspecified) | -53
COC(=O)c1ccc(OC)c(CN2CCN(CC(C)C)C(=O)C2C)c1 (stereo unspecified) | 0
O=C(NCc1ccc(Cl)cc1)c1nc(Nc2ccccc2)c2ccccc2n1 | 79
Cc1oc(-c2ccccc2)nc1Cn1nnc(-c2nc(-c3ccccc3Cl)no2)c1C | 10
O=C(CCC1N=C2c3ccccc3N=C(SCc3cc(=O)n4ccccc4n3)N2C1=O)NC1CCCCC1 (stereo unspecified) | 25
C=CCN(C(=O)c1cc(-c2ccc(C)s2)[nH]n1)C1CCS(=O)(=O)C1 (stereo unspecified) | -6
Nc1nc(N)c2nc(-c3cccc(O)c3)c(-c3cccc(O)c3)nc2n1 | 2
COC(=O)C1C(c2ccccc2)C(C(=O)OCc2ccco2)C1c1ccccc1 (stereo unspecified) | 94
Cc1ccc(NC(=O)CC(=O)N(C)Cc2sccc2C)cc1 | 9
Cc1ccc2c(C)c(C(=O)N3CCCN(C(=O)C4CCCO4)CC3)oc2c1 (stereo unspecified) | 7
O=C(C[C@@H]1CC[C@H]2[C@@H](COC[C@@H](O)CN2C(=O)Nc2ccc(F)cc2)O1)NC1CCC1 | 11
CO[C@H]1CN(C)C(=O)c2cc(NS(C)(=O)=O)ccc2OC[C@H](C)N(Cc2cncnc2)C[C@H]1C | 95

# Taken from above.
# In Tg IFNy HTS, CC(C)CCC1(CCNC(C)c2cccs2)CCOC(C)(C)C1 (stereo unspecified) reads 16
# In Tg IFNy HTS, CC(C)N1C2COCC1CN(C(=O)c1cccc(C#N)c1)C2 reads 480
# In Tg IFNy HTS, O=C(O)CCCN(c1ccccc1C(=O)O)S(=O)(=O)/C=C/c1ccccc1 reads 2
# In Tg IFNy HTS, O=C(NCCS(=O)(=O)Cc1ccc(F)cc1)c1cccc(OC(F)(F)F)c1 reads -60

# Later entries
mol | Tg IFNy HTS
CN(CCO)CC(O)Cn1cnc2c1c(=O)n(C)c(=O)n2C (stereo unspecified) (tested in a mixture with another compound) | 44
Cc1cc(C)n(Cc2nc(-c3ccc(NC(=O)CC(C)C)cc3)oc2C)n1 | -1
Cc1ccc(C)c(NC(=O)CCNC(=O)c2cc(C3CC3)[nH]n2)c1 | 7
COC(=O)c1cc(C2CC2)nc2c1c(=O)n(Cc1nc(-c3ccccc3C)oc1C)c(=O)n2C | 5
Cc1cccc(-c2nc(CCNC(=O)c3ccco3)cs2)c1 | 497
Cc1cnc(N2CCC3(CC2)CCN(c2cncnc2)C3=O)nc1 | -26
CC(C)C(=O)NCc1csc(C2CCCN(C(=O)c3c(F)cccc3F)C2)n1 (stereo unspecified) | -5
COCCN(Cc1cnn(C)c1)C(=O)c1cccc(C(F)(F)F)c1 | -2
COCCNC(=O)C[C@@H]1CC[C@H]2[C@H](COc3ccc(NC(=O)Nc4cccc(F)c4)cc3C(=O)N2C)O1 | -37
COc1ccc(N(Cc2nc(-c3cccc(Cl)c3)oc2C)S(=O)(=O)c2ccccc2)cc1 | -52
COc1ccccc1-c1nc(CSc2nc3c(=O)[nH]c(C)nc3n2C)c(C)o1 | 1
COc1c(Cl)cc(Cl)cc1CN1CC[C@@H](N)[C@@H](OC)C1 | 3

# The list continues.
mol | Tg IFNy HTS
Cc1cc(C)cc(NC(=O)CN2CCC3(CC2)N=C(c2ccc(C)c(C)c2)C(=O)N3)c1 | 5
CCOC(=O)[C@@]1(CCCCCCOc2ccc(Cl)cc2)CO1 | 23
O=C(c1nc2ccccc2s1)C1CCN(C(=O)c2csc3c2CCCC3)CC1 | -14
O=C(Cc1ccccc1)Nc1nc2ccc(Cl)cc2c2nc(-c3ccco3)nn12 | 8
CC(C)C#Cc1ccc([C@H]2[C@@H](CO)N3C(=O)CN(S(=O)(=O)c4ccccc4)C[C@@H]23)cc1 | -41
O=C1CCCCCN1CCC(=O)N1CC[C@@H](c2ccc3c(c2)OCO3)[C@H](O)C1 | -8
N#Cc1cc2cc3c(cc2nc1NCCNC(=O)Cc1ccccc1)OCO3 | 22
CC1CCN(c2ccc(C(C)NC(=O)c3ccc(-n4cnnc4)cc3Cl)cc2)CC1 (stereo unspecified) | -11
CN(C)Cc1cc(-c2ccc(CNC(=O)CN3CCOCC3)cc2)nn1C | 18
Cc1cc(CC(C)NC(=O)c2c[nH]c3ccccc23)n[nH]1 (stereo unspecified) | -16
COCC(=O)N1[C@H](C#N)[C@@H](c2ccccc2C2=CCCC2)[C@@H]1CO | -30
C1=Cc2ccccc2N2CC(c3ccc4ccccc4c3)N=C12 (stereo unspecified) | -40

# Molecules listed so far that have a furan ring, fused or not (5):
mol | Tg IFNy HTS
CCc1nc(CN(C)C(=O)c2ccc(-c3ccccc3Cl)o2)no1 | 66
COC(=O)C1C(c2ccccc2)C(C(=O)OCc2ccco2)C1c1ccccc1 (stereo unspecified) | 94
Cc1ccc2c(C)c(C(=O)N3CCCN(C(=O)C4CCCO4)CC3)oc2c1 (stereo unspecified) | 7
Cc1cccc(-c2nc(CCNC(=O)c3ccco3)cs2)c1 | 497
O=C(Cc1ccccc1)Nc1nc2ccc(Cl)cc2c2nc(-c3ccco3)nn12 | 8

# Other entries follow.
mol | Tg IFNy HTS
Cn1c(=O)c(F)c(Nc2ccc(I)cc2F)c2c(=O)n(C[C@@H](O)CO)cnc21 | -2
CC(C)Oc1ccc(CNC(=O)CN2C(=O)CCc3cc(Br)ccc32)cc1 | -3
FCCCN1CCCC(CCc2ccccc2F)C1 (stereo unspecified) | 2
CCOC(=O)C1CSC(CC(=O)Nc2ccc(Cl)c(Cl)c2)C(=O)N1 (stereo unspecified) | -8
c1nc(NCC2CNCCOC2)c2[nH]cnc2n1 (stereo unspecified) | 11
N#C[C@@H]1[C@H](c2ccccc2)[C@H](CO)N1C(=O)CCN1CCCCC1 | -9
Oc1[nH]c2ccccc2c1C1=NCCCC1 | 1
Cc1ncc(C(=O)N2CCCCC2)c(C2CCCN2C(=O)c2ccc3c(c2)OCCO3)n1 (stereo unspecified) | 2
CC(=O)N1CCC(Cc2cnc(Br)cn2)C1 (stereo unspecified) | 6
O=C(C[C@@H]1CC[C@@H]2NC[C@@H](O)COC[C@H]2O1)NC1Cc2ccccc2C1 | 8
C1Cc2[nH]nc(CNC3CSCCSC3)c2C1 | 4
COc1cccc(-n2c(=O)c(C(=O)Nc3ccc(C)cc3)c(O)c3cccnc32)c1 | -29

# Continuation.
mol | Tg IFNy HTS
CC(CCn1cccn1)Nc1ccc(-c2nccn2C)nn1 (stereo unspecified) | -24
Cc1cc2c(cc1C)C(=O)NCC(C(=O)NCCc1c[nH]c3ccccc13)O2 (stereo unspecified) | 3
O=C(CC1Nc2c3ccccc3nc(=S)n2C1=O)N1CCN(c2ccccc2F)CC1 (stereo unspecified) | 33
C/C=C/c1ccccc1[C@@H]1[C@H](C#N)N(c2ncc(CC)s2)[C@H]1CO | -5
COC1C2CCC1N(c1ncccn1)C2 (stereo unspecified) | 3
O=c1[nH]cnc2c1ncn2[C@@H]1O[C@H](CO)[C@@H](O)[C@H]1O | 9&19&-17
CCCc1nc(C)cc(-c2cccc(O)c2)n1 | -13
Cc1ccc(-c2nc(CNS(=O)(=O)c3ccccc3)c(C)o2)cc1 | 32
CN1c2ccccc2[C@H]2CN(C(=O)CCC(=O)O)CC[C@H]21 | 109
CCc1cnc(N2[C@H](CO)[C@H](c3ccc(C4=CCCCC4)cc3)[C@@H]2C#N)s1 | -50
CC1=C(C(=O)Nc2ccccc2F)C2(CCN(C(C)C)CC2)OC1=O | 35
COc1ccc(CN(C)C[C@@H]2OCCCC[C@@H](C)Oc3ccc(NC(=O)C4CCCCC4)cc3C(=O)N([C@@H](C)CO)C[C@@H]2C)cc1 | 176

# Going on with the list.
mol | Tg IFNy HTS
CCOc1ccc(-c2nc(Cc3noc(-c4ccccc4)n3)c(C)o2)cc1 | 18
CCS(=O)(=O)N1CC2CN(C(=O)CCO)CC[C@@]2(c2ccccc2)C1 (stereo partly specified) | -45
Cc1cc(-c2cncnc2C2CCN(C(=O)c3ccc(Cn4cccn4)o3)CC2)on1 | 15
O=C(C[C@H]1C[C@@H]2CN(Cc3ccc(F)cc3)C[C@H]2O1)N1CCCCO1 | -1
Cc1ccc2c(c1)NC1(CCN(C(=O)NCc3ccco3)CC1)c1cccn1-2 | 77
O=C([C@@H]1[C@@H](CO)[C@@H]2Cn3c(cccc3=O)[C@H]1N2S(=O)(=O)c1ccccc1F)N1CCCCC1 | -15
CN(C)C[C@@]12COC[C@H]1CN(C(=O)c1ccc3ncccc3c1)C2 | -22
CO[C@@H]1CN(C)C(=O)c2cc(NC(C)=O)ccc2OC[C@@H](C)N(Cc2ccncc2)C[C@@H]1C | -54
Cc1ccccc1CC(=O)N1CCC2(CC1)NC(=O)c1cc(F)ccc1N2C | 39
CC(C)c1csc(C(=O)N2CC[C@@H]3CC[C@H](C2)N3C)n1 | -4
